RE007 growth inh: qHTS Assay for Inhibitors of the HIV-1 protein Vpr; 0.21% of 360,000 active; S. pombe RE007 Vpr strain, BacTiter-Glo ATP luminescence, 24 h; control for the full effect not named in the record; Potency, µM (doses to about 92.2 µM), without a hit: at the top dose activity change, negative = less growth; active = well fitted falling curve with a large enough effect; inconclusive = small, poorly fitted or top-dose-only effect; inactive = no such curve, though single readings can be large or run the other way;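 also: % is scaled to controls: 0 for no effect and ±100 for the full control effect; nearly all actives have a fitted effect of over 50% in size; the assay follows cell death caused by Vpr and the record does not say whether a fall means rescue or toxicity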
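Fission yeast strain RE007, carrying one chromosomally integrated HIV-1 vpr copy, was seeded at OD 0.01 in PMG+AL medium with 23 nL pinned compound. After 24 h at 30 °C and 99% humidity, viability was read by BacTiter-Glo luminescence.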
NS1 function inh: qHTS Assay for Inhibitors of Influenza NS1 Protein Function; S. cerevisiae slowed by influenza A NS1, growth recovery by OD600; Potency, µM (titrated, usually from 46.1 µM), for the others: at the top dose activity, positive = more growth; 0.4% of 270,000 active; AID 2326, 2010; also: actives are rising curves; nearly all actives have a fitted effect of over 50% in size
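Read-out: OD600 growth recovery of NS1-expressing budding yeast. Cells grown overnight at 30C in -URA glucose medium, washed, resuspended and diluted 1:100 in 2% galactose assay medium, pH 6.0. Same strain lacking NS1 served as positive control.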
Cruzain Triton: qHTS Assay for Promiscuous and Specific Inhibitors of Cruzain (with detergent); Cruzipain (Trypanosoma cruzi), P25779; Potency, µM, inactives show max response, negative = inhibition, actives largely listed as inhibitors; purified cruzain, Z-FR-AMC fluorescence, 0.01% Triton; 0.43% of 200,000 active; AID 1478, 2009; active = well fitted curve in the direction sought with a large enough effect; inconclusive = small, poorly fitted or top-dose-only effect, or another doubt; inactive = no such curve, though single readings can be large; an effect the other way counts as inactive or inconclusive;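 also: plate controls were neutral wells for no effect and buffer without enzyme for full effect; nearly all actives have a fitted effect of over 40% in size; top concentration of the series not given in the record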
Target sequence (P25779 123-467 limits assumed): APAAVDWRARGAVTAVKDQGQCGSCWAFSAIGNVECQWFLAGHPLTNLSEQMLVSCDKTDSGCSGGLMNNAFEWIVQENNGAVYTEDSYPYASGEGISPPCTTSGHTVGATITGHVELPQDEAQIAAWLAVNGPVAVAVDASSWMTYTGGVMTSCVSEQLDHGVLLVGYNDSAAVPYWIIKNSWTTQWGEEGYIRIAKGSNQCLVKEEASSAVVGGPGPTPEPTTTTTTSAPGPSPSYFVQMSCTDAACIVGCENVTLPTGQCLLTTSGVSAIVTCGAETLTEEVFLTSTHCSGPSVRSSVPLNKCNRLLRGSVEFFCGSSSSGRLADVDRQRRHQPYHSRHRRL
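Enzyme 1.5 nM, Z-FR-AMC 2 uM, NaOAc 100 mM pH 5.5, DTT 5 mM, Triton X-100 0.01%; 15 min RT compound preincubation; kinetic ex360/em450, 60 s delta.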
2A StopGo: High Throughput Screening for Foot and Mouth Disease Virus Antivirals; human cells with a luciferase reporter of 2A StopGo recoding; control for the full effect not named in the record; Potency, µM (titrated, usually from 57.9 µM), for the others: at the top dose signal change, negative = less light; 1.2% of 410,000 active; active = well fitted falling curve with a large enough effect; inconclusive = small, poorly fitted or top-dose-only effect; inactive = no such curve, though single readings can be large or run the other way; tested in HEK293T cells; also: % is scaled to controls: 0 for no effect and ±100 for the full control effect; nearly all actives have a fitted effect of over 45% in size; luciferase light after 4 h
Cruzain inh noDet: qHTS Assay for Promiscuous and Specific Inhibitors of Cruzain (without detergent); Potency, µM, without a hit: max response, negative = inhibition, usual class: inhibitors; purified cruzain, Z-FR-AMC fluorescence, no detergent; 2.3% of 200,000 active; active = well fitted curve in the direction sought with a large enough effect; inconclusive = small, poorly fitted or top-dose-only effect, or another doubt; inactive = no such curve, though single readings can be large; an effect the other way counts as inactive or inconclusive;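 also: plate controls were enzyme without inhibitor for no effect and buffer without enzyme for full effect; nearly all actives have a fitted effect of over 40% in size; top concentration of the series not given in the record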
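Detergent-free condition (0.00005% Triton X-100) in acetate buffer pH 5.5 with DTT. 1.5 nM enzyme and compound were pre-mixed 15 min, then 2 uM Z-FR-AMC substrate added; reaction progress from fluorescence change between first and third reads (60 s).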
SARS PLpro yeast: qHTS of Yeast-based Assay for SARS-CoV PLP; S. cerevisiae expressing SARS-CoV PLpro, growth rescue; control for the full effect not named in the record; Potency, µM (highest dose often 32.9 µM), for inactives: top-dose activity, positive = growth rescue; 0.19% of 330,000 active; AID 485353, 2010; also: 0% is about no effect; nearly all actives have a fitted effect of over 55% in size; growth read by luminescence after 48 h
Marburg entry inh: qHTS for inhibitors of binding or entry into cells for Marburg Virus; Marburg virus pseudotyped entry inhibition, cell reporter; control for the full effect not named in the record; about a third of the inactives were read at about 46 µM; Potency, µM (highest dose often 37.8 µM), for inactives: top-dose activity change, negative = inhibition, usual class: inhibitors; 1.8% of 300,000 active; active = well fitted inhibition curve with a large enough effect; inconclusive = small, poorly fitted or top-dose-only effect, or effect the other way; inactive = flat fitted curve, though single readings scatter; tested in HEK293 cells; about a fifth of its hits are not listed in these tables; also: % is scaled to controls: 0 for no effect and ±100 for the full control effect; luciferase read-out
Lassa entry inh: qHTS for Inhibitors of binding or entry into cells for Lassa Virus; Potency, µM (doses to about 37.9 µM), inactives show at the top dose activity change, negative = inhibition, hits mostly inhibitors; 1.2% of 300,000 active; Lassa virus pseudotype entry inhibition, cell reporter; control for the full effect not named in the record; active means well fitted inhibition curve with a large enough effect; inconclusive means small, poorly fitted or top-dose-only effect, or effect the other way; inactive means flat fitted curve, though single readings scatter; tested in HEK293 cells; also: % is scaled to controls: 0 for no effect and ±100 for the full control effect; nearly all actives have a fitted effect of over 50% in size; luciferase read-out
* hit, by the source's call; ? = inconclusive; nt = not tested or not shown; & = joins results of further samples; [ ] = dose if it differs, or a comment. Unless noted, calls follow the shape of the dose curve; as a rule, active means well fitted rising curve with a large enough effect; inconclusive means small, poorly fitted or top-dose-only effect; inactive means no such curve, though single readings can be large or run the other way. Potency is read from the fitted curve at half-maximal effect.

smiles | RE007 growth inh | NS1 function inh | Cruzain Triton | 2A StopGo | Cruzain inh noDet | SARS PLpro yeast | Marburg entry inh | Lassa entry inh
COC(=O)C1C2c3ccccc3C(c3ccccc32)C1C(=O)OC (stereo unspecified) | -2% | nt | nt | -4% | nt | -3% | 2% | ?
CCN(CC)C1Oc2cc3c(cc2C(c2cccc(OC)c2O)C1C)OCO3 (stereo unspecified) | -16% | nt | nt | -15% | nt | nt | 7% | -20%
COc1cc(/C=N\NC(C)=O)ccc1OC/C=C/c1ccccc1 | 5% | -13% | nt | 10% | nt | -3% | -26%[46.1 µM] | -29%[46.1 µM]
CCOc1ccc(C=NC23CN4CN(CN(C4)C2)C3)cc1 | 3% | -10% | 3.4% | -13% | -13% | 4% | 0% | 3%
COc1ccc(S(=O)(=O)N2CCN=C2SCc2cccc(C)c2)cc1 | 2% | 11% | nt | ? | nt | -10% | ? | ?
CC(=O)Nc1ccc(C(=O)OCC(=O)Nc2c(F)cccc2F)cc1 | 3% | 4% | nt | -1% | nt | 1% | nt | nt
Cc1nnc(SCc2cc(=O)n3c(C)cccc3n2)s1 | nt | nt | -2.3% | 13% | -7% | nt | nt | 12%[46.1 µM]
COc1ccc(C(=O)Nc2nncs2)cc1S(=O)(=O)N1CCOCC1 | -11% | 12% | nt | -4% | nt | 6% | 12%[46.1 µM] | ?
Cc1cc(NC(=O)c2ccc(Cl)cc2Cl)no1 | -4% | 13% | nt | 50%[activator] | nt | 1% | nt | nt
COC(=O)CSc1nsc(SCC(=O)OC)n1 | -4% | -2% | 4.8% | 24% | -1% | 1% | -12% | 1%
CC(=O)OCn1nnc2ccccc2c1=O | -1% | -3% | -0.9% | -11% | -4% | ? | 20% | 10%
Nc1cc(=O)[nH]c(SCC(=O)Nc2cccnc2Cl)n1 | 3% | 12% | nt | 12% | nt | 2% | -15%[46.1 µM] | 10%

Laid out differently: results already given.
CC(=O)Nc1ccc(C(=O)OCC(=O)Nc2c(F)cccc2F)cc1
  RE007 growth inh: 3%	NS1 function inh: 4%	Cruzain Triton: nt	2A StopGo: -1%	Cruzain inh noDet: nt	SARS PLpro yeast: 1%	Marburg entry inh: nt	Lassa entry inh: nt

Cc1nnc(SCc2cc(=O)n3c(C)cccc3n2)s1
  RE007 growth inh: nt	NS1 function inh: nt	Cruzain Triton: -2.3%	2A StopGo: 13%	Cruzain inh noDet: -7%	SARS PLpro yeast: nt	Marburg entry inh: nt	Lassa entry inh: 12%[46.1 µM]

More results follow.
smiles | RE007 growth inh | NS1 function inh | Cruzain Triton | 2A StopGo | Cruzain inh noDet | SARS PLpro yeast | Marburg entry inh | Lassa entry inh
Cc1sc(NC(=O)c2c(F)cccc2F)nc1-c1ccccc1 | 5% | -12% | nt | -11% | nt | 0% | ? | ?
Cc1ccc2nc(-c3ccc(C)c(NC(=O)CSc4ccc(Cl)cc4)c3)oc2c1 | nt | nt | 0.9% | 69%[activator] | -3% | nt | ? | -1%[46.1 µM]
CCN(CC)C(=O)CN(c1cc2c(cc1OC)oc1ccccc12)S(=O)(=O)c1ccc(C)cc1 | 8% | 28% | -0.4% | 61%[activator] | 16% | 0% | ? | ?
CCN(CC(=O)NC1CCS(=O)(=O)C1)S(=O)(=O)c1c(C)c(C)cc(C)c1C (stereo unspecified) | -24% | nt | nt | -1% | nt | -2% | 2% | 6%
CN(c1ccc(O)cc1)S(=O)(=O)c1ccc2ccccc2c1 | 10% | -22% | nt | 15% | nt | -8% | ? | 12%
CCn1c(CNC(=O)c2ccccc2Br)nnc1SCC(=O)NC1=NCCS1 | -15% | 2% | nt | -6% | nt | 0% | -5%[46.1 µM] | -3%
CN(C)c1cccc2c(S(=O)(=O)NCc3ccc(S(N)(=O)=O)cc3)cccc12 | -3% | 0% | nt | -15% | nt | 1% | ? | -15%
COc1ccccc1C(=O)NC(=O)COC(=O)CNC(=O)c1ccc(Cl)cc1Cl | -13% | nt | nt | 6% | nt | -1% | ? | ?
CC1=CC2=NC(=O)/C(=C\c3ccc(-c4cccc(Cl)c4)o3)C(=N)N2O1 | -19% | -7% | -1.4% | 18% | -26% | -6% | ? | ?
Cc1cccc(-c2nc(CS(=O)CC(=O)NCc3cccs3)c(C)o2)c1 (stereo unspecified) | -5% | -2% | 2.2% | 23% | 4% | 3% | nt | nt
COc1cccc(CNC(=O)c2ccc3c(c2)nc2n3CCOC2)c1 | nt | nt | 1.4% | -6% | -15% | nt | nt | -2%[46.1 µM]
O=C(CSc1ncnc2c1cnn2-c1ccccc1)NC1CCS(=O)(=O)C1 (stereo unspecified) | -6% | nt | nt | -27% | nt | 6% | -24% | -26%
O=S(=O)(NCc1ccccc1Cl)c1ccc(-n2cccn2)cc1 | 10% | 7% | nt | 20% | nt | 11% | nt | nt
CC(OC(=O)c1ccccc1NS(=O)(=O)c1cccc(C(F)(F)F)c1)C(=O)N(C)Cc1ccccc1 (stereo unspecified) | 8% | 25% | -8.9% | -2% | 15% | 2% | 7.1µM* | ?
CCOC(=O)c1ccc(NC(=O)c2cc(F)c(F)cc2Cl)cc1 | -1% | -31% | nt | 38%[activator] | nt | -4% | -14%[46.1 µM] | 0%
CC(C)OC(=O)c1cc2c(=O)[nH]c(C(Cl)(Cl)Cl)nc2o1 | 3% | nt | nt | 23% | nt | 2% | -9%[46.1 µM] | 24%[46.1 µM]
COc1ccc(N2CCN(C(=S)NC(=O)c3cccs3)CC2)c([N+](=O)[O-])c1 | -3% | nt | nt | 24% | nt | -1% | -17%[46.1 µM] | ?
COc1ccc(C)cc1NC(=O)CNC(c1ccccc1)c1ccccc1 | 5% | -4% | nt | -29% | nt | 1% | nt | nt
CCOC(=O)[C@@H]1[C@H]2COc3ccccc3[C@@H]2N2C(=O)N(c3cccc(Cl)c3)C(=O)[C@]12C | 14% | 17% | nt | -18% | nt | -2% | nt | nt
O=C(COC(=O)CCC(=O)c1ccc(Cl)cc1)NCc1ccco1 | -17% | nt | nt | 4% | nt | -3% | 0%[46.1 µM] | 17%[46.1 µM]
CCC(=O)NC(c1ccc([N+](=O)[O-])cc1)c1c(O)ccc2ccccc12 (stereo unspecified) | -3% | 12% | -4.6% | 0% | 0% | -3% | -25% | -15%
Cc1ccc(S(C)(=O)=O)cc1C(=O)N1CC(C(N)=O)Oc2ccccc21 (stereo unspecified) | -8% | 15% | nt | 0% | nt | 0% | 1% | -3%
COC(=O)Nc1ccc2c(c1)N(C(=O)CCN1CCOCC1)c1ccccc1S2 | 5% | 8% | -4.2% | 12% | 20% | 3% | 0% | 0%
COC(=O)CNc1ccc2c(c1)OCO2 | -12% | -15% | -2.5% | 26% | -10% | 5% | 9% | 26%
C[n+]1c2n(c3ccccc31)N=C(c1ccccc1)CS2 | -28%&-20% | -5% | -1.7% | ? | -13% | 1%&7% | ? | ?
CNC(=O)c1cc(C(=O)c2ccccc2C(F)(F)F)c[nH]1 | 0% | 3% | nt | -23% | nt | 0% | 6%[46.1 µM] | 4%[46.1 µM]
COc1cccc(C(=O)/C(C#N)=N/Nc2cccc(-c3ccnc(C)n3)c2)c1 | 1% | -6% | nt | 0% | nt | 0% | nt | nt
O=C(O)c1c(Cl)c(Cl)c(Cl)c(Cl)c1C(=O)N1CCOCC1 | 20% | 10% | 3.4% | -9% | -7% | 2% | 12% | 7%
O=C1C2CCCN2C(=O)N1CCCCN1CCN(c2ccc(F)cc2)CC1 (stereo unspecified) | -11% | -11% | -2.0% | -11% | 0% | -13% | ? | ?
O=C(CCCCCN1C(=O)CCC1=O)Nc1ccc(Br)cc1F | -2% | -1% | -8.7% | -23% | -2% | -3% | -3% | -1%
CCOC(=O)c1c(NC(=O)C(=O)N/N=C/c2ccc(O)c(OC)c2)sc2c1CCCCC2 | 7% | 28% | -2.3% | ? | -5% | -4% | 7% | ?
CCN1CCN(C(c2ccccc2)c2sc3nc(C)nn3c2O)CC1 (stereo unspecified) | 1% | 2% | nt | -16% | nt | 8% | nt | nt
COc1cc2c(N3CCOCC3)cc(O)c(CC(=O)Nc3ccccc3)c2cc1OC | 17% | 2% | -8.8% | 15% | 1% | 6% | -1%&-22% | ?
Oc1ccc(NCc2ccccc2OCc2ccccc2F)cc1 | -27% | -50% | -13%&-4.4% | ? | ? | 1% | -3%[46.1 µM] | ?
O=C(NCCc1nc2ccc(Cl)cc2[nH]1)C1CCC(=O)N(Cc2cccc(F)c2)C1 (stereo unspecified) | -11% | 8% | nt | -1% | nt | 5% | ? | -4%
CN(C)CC(=O)N1CCc2ccccc2C1 | 6% | nt | nt | 29% | nt | 3% | 11%[46.1 µM] | -9%[46.1 µM]
COC(=O)C1=C(N)OC2=C(C(=O)CC(C)(C)C2)C1c1ccccc1OCC#N (stereo unspecified) | 1% | 2% | nt | -6% | nt | 0% | -2%[46.1 µM] | 0%
O=C(CCS(=O)(=O)c1ccc(Br)cc1)NC1CCCC1 | 1% | 10% | 3.9% | 12% | -6% | 2% | 1% | -5%
CCOCCCN(CCC#N)S(=O)(=O)c1ccc(S(=O)(=O)N2CCCC2)cc1 | -3% | -5% | 2.5% | nt | 10% | -1% | 0% | 18%
COc1ccccc1NC(=O)NCCCl | 3% | -5% | 1.5% | 17% | 3% | 12% | -3% | 25%
Cc1ccnc(SCC(=O)O)n1 | 3% | 5% | 1.3% | 10% | 3% | 1% | -8% | 0%
CN(Cc1ccccc1)c1nc2c(c(=O)[nH]c(=O)n2C)n1CCOc1ccccc1 | -5% | -63% | -11% | ? | ? | 0% | ? | ?
CCN(CC)CCNS(=O)(=O)c1ccc2[nH]cc(C(=O)O)c(=O)c2c1 | 2% | 6% | -3.8% | 0% | -1% | 0% | 17% | -1%

Screening results from PubChem BioAssay.
